# Bioassay records deposited in PubChem by several laboratories.
# PrP UTR inh = inhibition of PrP 5' UTR reporter expression. cell-based PrP 5' UTR mRNA reporter, plate reader. inhibition, % (no concentration beside the values). 340,000 tested, 0.35% active;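 active = every replicate at 50% or more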;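 also: 0 = median of the neutral control wells; tested in H4 reporter cells; numbers are from one replicate; inactives centre near -14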
# RN4220 kill = growth inhibition of S. aureus RN4220, primary screen, OD600; 16 h; inhibition, % (test concentration not listed); 330,000 tested, 0.33% active; AID 1259311, 2017;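 active = z-score of -3 or lower and OD600 up to 0.18 on both plates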;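 also: plate controls were untreated cells for no effect and reference antibiotic for full effect; stock transfer was 100 nL into about 80 µL; one replicate is shown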
# Bead autofluor = counter-screen for toxin protease inhibitors: compound fluorescence. 360,000 tested, 3.1% active. fluorescence intensity (test concentration not listed). compound autofluorescence counterscreen, microsphere flow cytometry; stronger effect = higher value. AID 624483;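 active = at least 3 SD above the mean of all compounds, about 16000 in these data; inconclusive = too few beads counted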;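 also: 100 nL of 1 mM stock went into each well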
# BJeLR lethal = MLPCN primary cell-based screen for lethality selective to Ras in HRASV12 cells. BJeLR (HRASV12) viability, CellTiter-Glo ATP luminescence, 48 h; reference of the scale not given here. inhibition, % (test concentration not listed). 300,000 tested, 0.17% active. AID 1554, 2009;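 active = replicate mean above 50%; inconclusive = above 50% but judged a plate artefact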;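 also: 50 nL library stock added to about 25 µL; numbers are from one replicate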
# Sa ugtP lethal = growth inhibition of ugtP-null S. aureus, primary screen, RN4220 ugtP deletion, OD600; 330,000 tested, 0.54% active; growth inhibition, % (test concentration not listed); 16 h; some inactives read as strong as hits; AID 1259309, 2017;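 active = z-score under -3 and OD600 up to 0.15 on both plates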;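 also: plate controls were untreated wells for no effect and antibiotic for full effect; wells of about 80 µL received 100 nL stock; the first replicate is given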
# Mtb hypoxia inh = PubChem AID 1159583. M. tuberculosis hypoxia-regulated fluorescent reporter, fluorescence. fluorescence inhibition, % (no concentration beside the values). 300,000 tested, 0.1% active;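 active = 35 to 45% if threefold the growth effect, above 45% if 1.5-fold the growth effect; inactive = the rest, general growth blockers included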;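 also: wells of about 50 µL received 100 nL stock; 0% = vehicle wells and 100% = reference inhibitor wells; whole bacteria with a GFP reporter of the hypoxia response; strong numbers were not always called active; many hits fall short of the cut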
# Mtb hypoxia inh growth = further read-out of Mtb hypoxia inh, marked with its call; growth inhibition, %; measured here: M. tuberculosis growth (absorbance);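 0% = vehicle and 100% = reference antibiotic; read after six days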
# Numbers without * were called inactive; ? = inconclusive; . = no result given. Random draw from the library. About 4.1% of those tested had a hit in this group.
1: CNC(=O)NC(=O)COC(=O)CCc1nc(=O)c2ccccc2n1C
2: CCNC(=O)COc1ccc(/C=N/NC(=O)c2cccnc2)cc1OC
3: Cc1ccc(NC(=O)c2ccccc2N2C(=O)C3C4C=CC(C5CC45)C3C2=O)cc1C (configuration not stated)
4: C/C(CC(=O)NC1CCCCC1)=N\NC(=O)c1ccc(Br)cc1
5: O=c1c2nnn(-c3ccc(Br)cc3)c2ncn1Cc1ccccn1
6: COc1cc(C#N)ccc1OC(=O)Cc1cc(OC)c(OC)c(OC)c1
assay / entry	1	2	3	4	5	6
PrP UTR inh	-28.6	-18.8	-19.2	-1.8	-13.7	-7.6
RN4220 kill	6.5	.	-0.5	.	0.9	0.4
Bead autofluor	2622	3594	5870	5618	4019	5325
BJeLR lethal	7.3	5.6	-0.7	-9.3	-2.4	6.8
Sa ugtP lethal	0.4	.	-3.2	.	1.4	1.5
Mtb hypoxia inh	-2.2	.	0.1	.	4.4	2.9
Mtb hypoxia inh growth	7.2	.	2.4	.	8.9	12.1

7: COc1ccc(NC(=S)NN(C)C(=S)Nc2ccc(OC)cc2)cc1
8: COC(=O)C1CCN(C(=O)c2ccccc2Oc2ccccc2)CC1
9: CC1CN(C(=O)Cn2c(=O)oc3ccccc32)CC(C)O1 (configuration not stated)
10: CCC(C(=O)N1CCOCC1)n1c2ccccc2c2nc(=O)cc(C)n21 (configuration not stated)
11: O=C(NC1CCCC1)C1CCCN1C(=O)Nc1ccccc1 (configuration not stated)
12: Cc1cccc(OCC(=O)NCc2cc(C)nc3ccccc23)c1
assay / entry	7	8	9	10	11	12
PrP UTR inh	-5.3	-15.6	-30.1	-0.9	-9.4	-19.5
RN4220 kill	4.2	3.5	5.2	3.1	2.2	-2.7
Bead autofluor	2105	20014*	5969	5667	9433	4587
BJeLR lethal	-2.5	-1.5	-19.2	-2.9	-1.4	-3.0
Sa ugtP lethal	9.2	-3.8	7.1	1.2	-6.8	6.2
Mtb hypoxia inh	5.9	2.6	-11.1	14.0	-2.8	17.9
Mtb hypoxia inh growth	11.8	10.3	-8.3	3.4	1.5	10.8

# Next section, starting with the last 2 of the part before.
11: O=C(NC1CCCC1)C1CCCN1C(=O)Nc1ccccc1 (configuration not stated)
12: Cc1cccc(OCC(=O)NCc2cc(C)nc3ccccc23)c1
13: C=CCSC1=N/C(=C\c2ccc3c(c2)OCO3)C(=O)S1
14: O=C(NCc1ccccc1)c1nc2ccccc2s1
15: COC(=O)c1ccc(-c2ccc(C=NN3C(=O)C4C5C=CC(CC5)C4C3=O)o2)cc1 (configuration not stated)
16: O=C(c1cc(Cl)nc2ccccc12)N1CCc2ccccc2C1
17: Cc1cc(C)c(NC(=O)c2ccc(S(=O)(=O)N3CCOCC3)cc2)c(C)c1
18: CCN1C(=O)CC(N2CCC(C(=O)N3CCCCCC3)CC2)C1=O (configuration not stated)
assay / entry	11	12	13	14	15	16	17	18
PrP UTR inh	-9.4	-19.5	2.8	-21.1	.	-10.1	-38.0	0.3
RN4220 kill	2.2	-2.7	.	1.0	0.4	0.1	5.1	3.8
Bead autofluor	9433	4587	2380	3902	.	4492	5521	3526
BJeLR lethal	-1.4	-3.0	-3.5	3.2	.	2.8	4.8	3.2
Sa ugtP lethal	-6.8	6.2	.	6.9	10.3	3.1	-5.2	6.3
Mtb hypoxia inh	-2.8	17.9	.	.	5.4	21.4	-3.1	17.2
Mtb hypoxia inh growth	1.5	10.8	.	.	6.4	9.0	-1.4	4.5

19: COc1ccc(CN2CCn3ncc(C(=O)Nc4cc(C)cc(C)c4)c3C2=O)cc1
20: O=C(O)CSc1nnc(-c2cccc(S(=O)(=O)N3CCCCC3)c2)o1
21: COc1cc(O)c2c(c1)COC2=O
22: Cc1cc(C(C#N)c2cccc(Cl)c2)n2ncnc2n1 (configuration not stated)
23: O=S(=O)(O)c1ccc(O)c2cc(Nc3ccccc3)ccc12
24: CN(CC(=O)NCc1ccc2c(c1)OCO2)S(=O)(=O)c1ccc(Cl)cc1
assay / entry	19	20	21	22	23	24
PrP UTR inh	1.5	-6.0	-2.2	-10.2	-10.3	-11.0
RN4220 kill	-0.3	6.3	-7.7	3.9	27.2	-2.5
Bead autofluor	2147	3352	2587	?	3892	6459
BJeLR lethal	12.1	-2.0	-11.1	8.1	.	.
Sa ugtP lethal	7.0	7.2	-0.4	-6.7	-6.1	2.9
Mtb hypoxia inh	.	17.9	1.5	-3.0	3.2	-3.8
Mtb hypoxia inh growth	.	6.4	5.2	8.1	0.6	-6.0

25: CCOc1ccccc1NC(=O)COC(=O)CC(NC(N)=O)c1ccc(Cl)cc1 (configuration not stated)
26: O=C(NCCc1ccccc1)c1cc2ncc(Br)cn2n1
27: Cc1onc(-c2ccccc2)c1C(=O)NCc1cccc(Cl)c1
28: O=C(Nc1ccccc1-c1nc2ccccc2[nH]c1=O)c1cccs1
29: CCCCC(=O)Nc1ccc(C(=O)Nc2ccc(S(=O)(=O)N3CCCC3)cc2)cc1
30: c1ccc2nc(N3CCCC3)c(N3CCCC3)nc2c1
assay / entry	25	26	27	28	29	30
PrP UTR inh	-6.9	-18.0	-19.7	-19.8	-25.3	-5.8
RN4220 kill	0.2	-1.1	12.2	3.5	-0.5	-0.5
Bead autofluor	2099	2715	3617	6108	14875	4758
BJeLR lethal	-6.6	5.9	0.7	1.0	21.8	28.7
Sa ugtP lethal	2.1	-3.2	1.5	1.5	6.9	12.8
Mtb hypoxia inh	-1.1	.	4.4	4.7	9.8	.
Mtb hypoxia inh growth	-2.8	.	13.1	13.6	3.2	.

31: Cc1ccc(NC(=O)CN(C)c2ccc(S(=O)(=O)N3CCN(C)CC3)cn2)cc1
32: Cc1cccc(-n2nc(C)c3c(C(=O)O)cc(-c4cccs4)nc32)c1
33: Cc1cccc(C)c1NC(=O)CN1C(=O)S/C(=C\c2cccn2C)C1=O
34: COc1cccc(COC(=O)c2cc(S(=O)(=O)N3CCCCC3)ccc2N2CCOCC2)c1OC
35: CN(C)C(=O)c1ccc(OCC(F)(F)F)nc1
36: CC(C)CNC(=O)/C=C/C=C/c1ccc2c(c1)OCO2
assay / entry	31	32	33	34	35	36
PrP UTR inh	-24.5	-17.8	-3.1	-9.1	-3.9	-16.5
RN4220 kill	6.5	2.8	3.6	0.3	2.4	2.8
Bead autofluor	4101	4197	8691	.	.	4242
BJeLR lethal	-17.3	-0.4	-0.5	2.9	-2.1	.
Sa ugtP lethal	3.6	-15.0	4.0	0.7	4.5	-6.1
Mtb hypoxia inh	0.4	2.1	-1.3	6.8	5.7	.
Mtb hypoxia inh growth	8.2	1.5	-1.0	2.9	10.4	.

37: Cn1c(=O)[nH]c(Nc2ccccc2)c([N+](=O)[O-])c1=O
38: O=C(CNC(=O)c1ccc(Cl)cc1Cl)OCn1nnc2ccccc2c1=O
39: COc1ccc(CNC(=O)Cn2cnc3c(OCc4ccccc4)ncnc32)cc1
40: Cc1nc(OCc2ccccc2)c2sc3nc4c(cc3c2n1)COC(C)(C)C4
41: O=C(CCCN1C(=O)/C(=C\c2ccco2)SC1=S)Nc1ccc(O)cc1C(=O)O
42: CC(C)c1cccc(C(C)C)c1NC(=O)COc1nncc2ccccc12
assay / entry	37	38	39	40	41	42
PrP UTR inh	-19.9	-8.4	2.0	-25.8	-2.1	-5.4
RN4220 kill	2.7	1.9	2.7	-3.6	.	5.8
Bead autofluor	5367	5163	2963	2915	4333	2688
BJeLR lethal	-3.2	-11.4	.	4.3	-4.9	2.5
Sa ugtP lethal	3.6	3.7	9.3	-2.3	.	6.9
Mtb hypoxia inh	4.6	0.8	-2.5	-1.5	.	4.3
Mtb hypoxia inh growth	5.6	8.3	1.1	12.7	.	5.6

43: COc1ccc(CN(Cc2ccc(C(=O)O)cc2)C(=S)Nc2ccc(C)cc2)cc1OC
44: COP(=O)(OC)/C(C=O)=N/Nc1ccc([N+](=O)[O-])cc1
45: NC(=O)c1nsc(C(=O)N(CC(=O)NC2CCCC2)c2ccc(F)c(Cl)c2)c1N
46: CCN(CC)S(=O)(=O)c1cccc(C(=O)NCC2CCCCC2)c1
47: O=C1c2ccccc2C(=O)N1Cc1nc(-c2ccccn2)no1
48: COc1ccc(CNC(=O)C2(CC3CC(c4ccccc4)=NO3)CCNCC2)cc1 (configuration not stated)
assay / entry	43	44	45	46	47	48
PrP UTR inh	-37.6	-3.0	-29.4	-25.3	-27.4	-13.3
RN4220 kill	1.8	.	2.6	6.6	2.0	-1.0
Bead autofluor	4310	4295	3747	4417	10604	3697
BJeLR lethal	6.2	13.2	-10.0	1.5	3.2	-6.4
Sa ugtP lethal	2.5	.	1.7	8.9	10.4	-1.2
Mtb hypoxia inh	11.1	.	-1.3	11.3	11.7	-9.2
Mtb hypoxia inh growth	4.4	.	3.1	-0.4	-1.5	12.1

49: CCOCCCn1c(C)nc2c(c1=O)c1nc3ccccc3nc1n2CCC1=CCCCC1
50: O=C(COc1ccc([N+](=O)[O-])cc1)NC(C(=O)O)C(O)c1cccc([N+](=O)[O-])c1 (configuration not stated)
51: O=C(c1cc2cc(Cl)ccc2[nH]1)N1CCN(C(=O)c2ccco2)CC1
52: CN(C)/N=C/c1ccc(Sc2ccc([N+](=O)[O-])cc2[N+](=O)[O-])o1
53: COCCCNC(=O)CC(NCCCOC)C(=O)O (configuration not stated)
54: O=C(CCC1CCCCC1)Nc1c2c(nn1-c1ccc(F)cc1)CS(=O)C2 (configuration not stated)
assay / entry	49	50	51	52	53	54
PrP UTR inh	0.1	-26.6	-9.6	-12.3	-4.8	-19.2
RN4220 kill	12.9	-1.2	2.6	.	5.0	-0.8
Bead autofluor	2922	4086	6022	2298	1884	5148
BJeLR lethal	-1.9	-1.3	2.3	-5.4	9.5	-10.7
Sa ugtP lethal	-15.7	5.7	-11.7	.	2.9	-4.8
Mtb hypoxia inh	22.5	0.2	0.1	.	7.5	.
Mtb hypoxia inh growth	41.9	-1.0	4.4	.	12.0	.

55: CCOc1ccc(C=C2C(=N)N3OC(C)=CC3=NC2=O)cc1OC
56: O=C(NCc1nnc2c(C(F)(F)F)cc(Cl)cn12)c1cccnc1
57: CCCCC(=O)OC1CCC2C3CCc4cc(O)ccc4C3CC[C@]12C (some centres not stated)
58: COc1cc(Cl)ccc1OCc1cc(C(=O)N(C)Cc2cccc3cnccc23)no1
59: Cc1ccc(NC(=O)C(=O)NCc2ccc(/C=N/NC(=O)c3c(C)nc4ccccn34)o2)cc1
60: COc1ccccc1C(=O)Nc1ccc(S(=O)(=O)N2CCOCC2)cc1
assay / entry	55	56	57	58	59	60
PrP UTR inh	.	-18.2	.	-23.8	-11.4	-29.3
RN4220 kill	4.8	4.0	-6.0	1.6	.	0.9
Bead autofluor	.	5738	.	6329	8961	2806
BJeLR lethal	.	0.9	.	2.1	-7.1	-3.5
Sa ugtP lethal	6.6	5.7	39.5	-10.3	.	-1.8
Mtb hypoxia inh	-3.1	8.4	4.4	-11.5	.	.
Mtb hypoxia inh growth	-2.4	-0.6	2.2	3.4	.	.

61: Cc1sc(NC(=O)c2cc(-c3ccc(Cl)cc3)nc3ccccc23)c(C(N)=O)c1C
62: CC(C)[C@H](NC(=O)N1CCn2c1nc1ccccc12)C(=O)NC1CCCCC1
63: CCCCNC(=O)Cc1ccc(C)cc1
64: Cc1ccc(-n2nc(C)c3c2OC(N)=C(C#N)C3c2ccco2)cc1 (configuration not stated)
65: Cc1ccc(N(C)S(=O)(=O)c2csc(C(N)=O)c2)cc1C
66: O=C(Cc1ccc(-n2c(=O)c3ccccc3n(Cc3ccc(F)cc3)c2=O)cc1)NCC1CCCO1 (configuration not stated)
67: Cc1cc(S(=O)(=O)NCc2ccccc2)ccc1OCC(=O)NCc1ccccn1
68: O=C(/C=C/c1ccccc1)Nc1cc(S(=O)(=O)N2CCOCC2)ccc1N1CCOCC1
assay / entry	61	62	63	64	65	66	67	68
PrP UTR inh	-13.3	0.0	-11.7	-26.5	-39.9	-19.3	-33.5	-4.1
RN4220 kill	9.7	-0.7	1.2	-1.1	7.7	3.8	0.9	0.8
Bead autofluor	2052	4350	2122	2478	3712	8776	3620	5780
BJeLR lethal	-2.9	6.5	-11.7	-0.1	-5.5	13.7	11.6	.
Sa ugtP lethal	-13.4	-1.7	0.5	1.2	5.5	-0.9	11.0	0.7
Mtb hypoxia inh	.	4.9	.	15.7	10.6	1.5	-1.3	-2.7
Mtb hypoxia inh growth	.	3.8	.	12.7	1.8	3.3	-6.1	-3.0
